From PubChem BioAssay
Vaccinia stage = blocks a specific stage of Vaccinia orthopoxvirus infection, primary screen, cell-based, single point. actives 0.01% (n = 89,000). AID 1053133, 2014. activity change (mCherry), % (no concentration beside the values). Vaccinia-infected cells, mCherry/Venus stage reporter fluorescence; hits give low values; some inactives read as strong as hits;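 active = mCherry past -33% and 40 or more points under the early reporter, replicates agreeing; inconclusive = past -33% without that gap or agreement; tested in A549 cells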;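 note: scaled between vehicle wells and reference inhibitor wells; 23 nL library stock went into each well; one replicate is shown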
Vaccinia stage Venus = recorded beside Vaccinia stage, whose call it bears; activity change (Venus), %; measured here: Venus reporter, other viral stage;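 negative = less Venus signal; first of two replicates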
Active calls of the source: *; u = inconclusive; x = no result given.

SMILES | Vaccinia stage | Vaccinia stage Venus
CCCC#Cc1ccc2c(c1)O[C@@H](CN(C)C(=O)NCCC)[C@H](C)CN([C@@H](C)CO)S2(=O)=O | 4 | -3
COc1ccc(S(=O)(=O)Nc2ccc3c(c2)C(=O)N([C@@H](C)CO)C[C@@H](C)[C@H](CN(C)C(=O)Nc2cccc4ccccc24)O3)cc1 | 21 | 14
CCC(=O)N1C[C@H](C)[C@@H](OC)CN(C)C(=O)c2cc(NC(=O)c3ccc(F)cc3)ccc2OC[C@H]1C | 2 | -4
CC(=O)N1[C@H](CO)[C@H](c2ccccc2)[C@H]1CN(C)C(=O)c1ccccc1F | 20 | 27
CCCNC(=O)C[C@H]1C[C@H]2c3cc(NC(=O)Nc4ccc(OC)cc4)ccc3O[C@H]2[C@@H](CO)O1 | 17 | 16
O=C(C[C@H]1C[C@@H]2c3cc(NC(=O)c4ccc5c(c4)OCO5)ccc3O[C@@H]2[C@@H](CO)O1)NCc1ccc(Cl)cc1 | u | x
CCC(=O)Nc1ccc2c(c1)OC[C@H](C)N(C(C)=O)C[C@@H](C)[C@@H](OC)CN(C)C2=O | 8 | -4
C[C@@H]1CCCCO[C@H](CN(C)C(=O)NC2CCCCC2)[C@H](C)CN([C@H](C)CO)C(=O)c2cc(NS(=O)(=O)c3ccccc3)ccc2O1 | -15 | 7
CNC[C@H]1[C@@H](c2ccc(C#CCC3CCCC3)cc2)[C@@H](CO)N1C(=O)C1CCC1 | -4 | -2
COc1ccc(S(=O)(=O)N2C[C@@H](O)COC[C@@H]3O[C@H](CC(=O)N[C@H]4CCN(Cc5ccccc5)C4)CC[C@H]32)cc1 | -8 | -1
CCCNC(=O)N(C)C[C@H]1Oc2ncc(C#CC(C)C)cc2C(=O)N([C@H](C)CO)C[C@@H]1C | -3 | -1
COc1ccc(NC(=O)Nc2ccc3c(c2)[C@H]2C[C@H](CC(=O)NCC4CC4)O[C@@H](CO)[C@H]2O3)cc1 | 11 | 5
CCS(=O)(=O)Nc1ccc2c(c1)C(=O)N(C)[C@H]1CC[C@@H](CC(=O)N3CCN(C)CC3)O[C@H]1CO2 | 7 | 11
CCCNC(=O)N(C)C[C@@H]1Oc2ncc(C#CC(C)C)cc2C(=O)N([C@@H](C)CO)C[C@H]1C | 0 | -6
C[C@@H]1CN([C@@H](C)CO)C(=O)CCCn2cc(nn2)CO[C@@H]1CN(C)S(=O)(=O)c1cccs1 | 16 | 8
COc1ccccc1CN1[C@@H](CO)[C@H](c2ccccc2)C12CN(C(C)=O)C2 | 5 | 12
COc1ccc(COC[C@@]23Oc4ccccc4[C@@H](NC(=S)N2C)[C@H]3CO[Si](C)(C)C(C)(C)C)cc1 | -35 | -40
C[C@@H]1CN([C@@H](C)CO)C(=O)Cc2cc(NC(=O)CCN3CCOCC3)ccc2O[C@@H]1CN(C)Cc1ccc(Oc2ccccc2)cc1 | u | x
C=CCOC(=O)[C@@H]1[C@H]2C(=O)O[C@H](c3ccccc3)[C@H](c3ccccc3)N2[C@H](c2ccc(OCCOC(=O)[C@H]3C[C@H]4C(=O)N5CCC[C@H]5C(=O)N4[C@H]3c3ccc(O)cc3)cc2)[C@@]12C(=O)Nc1ccccc12 | 7 | -6
O=C(C1CCCC1)N1CC2(C1)[C@H](c1ccccc1)[C@@H](CO)N2Cc1ccc(Cl)cc1 | -16 | -5

2 compounds picked at random from those above, as already listed:
SMILES | Vaccinia stage | Vaccinia stage Venus
COc1ccccc1CN1[C@@H](CO)[C@H](c2ccccc2)C12CN(C(C)=O)C2 | 5 | 12
C[C@@H]1CN([C@@H](C)CO)C(=O)Cc2cc(NC(=O)CCN3CCOCC3)ccc2O[C@@H]1CN(C)Cc1ccc(Oc2ccccc2)cc1 | u | x

(list continues)
SMILES | Vaccinia stage | Vaccinia stage Venus
C[C@H](CO)N1C[C@H](C)[C@H](CN(C)C(=O)NC2CCCCC2)Oc2ccc(NC(=O)c3ccncc3)cc2CC1=O | 7 | 12
CNC(=O)C[C@@H]1CC[C@H]2[C@@H](COC[C@@H](O)CN2Cc2ccccc2F)O1 | 6 | 1
Cc1cc(C(=O)Nc2cccc3c2O[C@H](CN(C)C(=O)Nc2c(C)noc2C)[C@H](C)CN([C@@H](C)CO)C3=O)n(C)n1 | 15 | 6
O=C(C[C@@H]1C[C@@H]2c3cc(NC(=O)Cc4ccncc4)ccc3O[C@@H]2[C@H](CO)O1)NCc1ccccc1 | 8 | 5
CC(C)NC(=O)Nc1ccc2c(c1)CC(=O)N([C@H](C)CO)C[C@@H](C)[C@H](CN(C)CC1CC1)O2 | 8 | -1
Cc1noc(C)c1NC(=O)N[C@@H]1CC[C@@H](CC(=O)NCCCN(C)C)O[C@H]1CO | 9 | 11
CN(C)C(=O)c1cc2c(c(-c3cccc(C4=CCCC4)c3)n1)[C@@H](CCO)N([S@](=O)C(C)(C)C)C2 | 6 | 32
CN1CCN(C(=O)C[C@@H]2CC[C@@H]3[C@H](COC[C@@H](O)CN3C(=O)Nc3ccc(Cl)cc3)O2)CC1 | -6 | -3
Cc1ccc(-c2ccc3c(c2)O[C@H](CN(C)S(C)(=O)=O)[C@@H](C)CN([C@H](C)CO)S3(=O)=O)cc1 | -4 | -12
O=C(C[C@H]1CC[C@@H]2[C@H](COC[C@H](O)CN2Cc2nccs2)O1)NCc1ccc(Cl)cc1 | -5 | -4
C[C@H]1CN([C@@H](C)CO)C(=O)c2cc(N(C)C)ccc2O[C@H]1CN(C)C(=O)Nc1cccc2ccccc12 | 20 | 4
COCCNC(=O)C[C@H]1C[C@@H]2c3cc(N(C)C)ccc3O[C@@H]2[C@@H](CO)O1 | -1 | 13
COC(=O)C[C@@H]1CC[C@@H]2[C@H](COC[C@@H](O)CN2C(=O)Nc2ccccc2OC)O1 | 16 | 9
C[C@H](CO)N1C[C@H](C)[C@@H](CN(C)C(=O)Nc2ccc(C(F)(F)F)cc2)Oc2c(NS(C)(=O)=O)cccc2C1=O | 12 | 1
Cc1noc(C)c1NC(=O)Nc1ccc2c(c1)C(=O)N([C@H](C)CO)C[C@@H](C)[C@@H](CN(C)C(=O)Nc1c(C)noc1C)OCCCC[C@@H](C)O2 | 20 | 11
CNC(=O)C[C@H]1CC[C@@H]2[C@H](COc3ccc(NC(=O)Nc4ccc(F)c(F)c4)cc3C(=O)N2C)O1 | 3 | 4
CC(C)OC(=O)N(C)C[C@H]1OCc2ccccc2-c2c(n(C)c3ccccc23)C(=O)N([C@H](C)CO)C[C@H]1C | -22 | -16
COc1ccccc1CN(C)C[C@@H]1OCc2ccccc2-c2c(n(C)c3ccccc23)C(=O)N([C@@H](C)CO)C[C@@H]1C | -32 | -25
CC(=O)N1CC2(C1)[C@H](c1ccccc1)[C@H](CO)N2S(=O)(=O)c1ccccc1 | 11 | 6
C[C@@H]1CN([C@@H](C)CO)C(=O)Cc2cc(NC(=O)CCN3CCOCC3)ccc2O[C@@H]1CN(C)Cc1ccc(Cl)c(Cl)c1 | -27 | -27
CN1C(=O)c2cc(NS(=O)(=O)c3cccc(F)c3)ccc2OC[C@H]2O[C@H](CC(=O)NCCN3CCCCC3)CC[C@H]21 | 2 | 10
COc1ccc2c3c([nH]c2c1)[C@H](CO)N(C(=O)C1CC1)CC31CN(C(=O)c2ccncc2)C1 | -4 | -3
CCCNC(=O)N[C@H]1CC[C@H](CCNS(=O)(=O)c2cccc(F)c2)O[C@H]1CO | -1 | 3
CC(=O)N1C[C@@H]2[C@H](c3ccccc31)[C@@H](CO)N2C(=O)CC1CC1 | 7 | 4
Cc1cccc(NC(=O)Nc2ccc3c(c2)C(=O)N(C)[C@@H]2CC[C@@H](CC(=O)NCc4ccccc4Cl)O[C@H]2CO3)c1 | -10 | 8
C[C@@H]1CN([C@@H](C)CO)S(=O)(=O)c2ccc(Br)cc2O[C@H]1CN(C)Cc1cccnc1 | -4 | -2
C[C@@H]1CN([C@H](C)CO)C(=O)c2cc(NC(=O)C3CCCCC3)ccc2O[C@@H]1CN(C)Cc1ccc2c(c1)OCO2 | -16 | -4
C[C@@H]1CN([C@H](C)CO)C(=O)c2cc(NS(=O)(=O)c3cn(C)cn3)ccc2O[C@@H](C)CCCCO[C@@H]1CN(C)C(=O)C1CCCCC1 | 35 | 21
COCC#Cc1ccc([C@@H]2[C@@H](CO)N3C(=O)CN(C(=O)C4CCC4)C[C@H]23)cc1 | 4 | -2
O=C(N[C@H]1CC[C@H](CCNC(=O)c2ccccc2F)O[C@@H]1CO)c1ccc2c(c1)OCO2 | -4 | 0
CC(C)c1cn(CC[C@@H]2CC[C@H](NS(=O)(=O)Cc3ccccc3)[C@@H](CO)O2)nn1 | 7 | 11
C[C@H](CO)N1C[C@H](C)[C@@H](CN(C)S(=O)(=O)c2cn(C)cn2)Oc2ccc(NC(=O)NC3CCCCC3)cc2CC1=O | 1 | 4
CN1C(=O)c2cc(NC(=O)C3CC3)ccc2OC[C@@H]2O[C@@H](CC(=O)NCCc3ccncc3)CC[C@H]21 | 0 | -2
C[C@H](CO)N1C[C@H](C)[C@@H](CN(C)Cc2cccnc2)Oc2ncc(-c3ccccc3)cc2C1=O | 17 | 3
O=C(C[C@H]1C[C@H]2c3cc(NC(=O)Nc4ccccc4F)ccc3O[C@H]2[C@@H](CO)O1)NCc1ccccn1 | 7 | 0
CO[C@H]1CN(C)C(=O)c2ccc(NC(=O)C3CC3)cc2OC[C@@H](C)N(C(=O)c2cnccn2)C[C@H]1C | 14 | 14
C[C@@H]1CN([C@@H](C)CO)C(=O)c2cccc(NC(=O)c3ccc(-c4nccs4)cc3)c2O[C@@H]1CN(C)S(=O)(=O)c1cn(C)cn1 | 1 | -2
COc1cccc(-c2ccc3c(c2)[C@H]2[C@H](CCN2S(=O)(=O)c2ccccc2C)[C@@H](CO)N3)c1 | -7 | 3
Cc1cccc(-c2ccc([C@@H]3[C@H](CO)N4C(=O)CN(C(=O)c5cccnc5)C[C@@H]34)cc2)c1 | -7 | 3
C[C@H](CO)N1C[C@H](C)[C@@H](CN(C)C(=O)c2ccc3c(c2)OCO3)Oc2cc(-c3ccncc3)ccc2S1(=O)=O | 14 | 12

Part of the list above, reformatted:
| smiles | Vaccinia stage | Vaccinia stage Venus |
| --- | --- | --- |
| CN1C(=O)c2cc(NC(=O)C3CC3)ccc2OC[C@@H]2O[C@@H](CC(=O)NCCc3ccncc3)CC[C@H]21 | 0 | -2 |
| C[C@H](CO)N1C[C@H](C)[C@@H](CN(C)Cc2cccnc2)Oc2ncc(-c3ccccc3)cc2C1=O | 17 | 3 |

One compound at a time, as listed above.
Entry for COc1ccc(S(=O)(=O)N2C[C@@H](O)COC[C@@H]3O[C@H](CC(=O)N[C@H]4CCN(Cc5ccccc5)C4)CC[C@H]32)cc1 = Vaccinia stage: -8; Vaccinia stage Venus: -1
Entry for C[C@@H]1CN([C@@H](C)CO)C(=O)Cc2cc(NC(=O)CCN3CCOCC3)ccc2O[C@@H]1CN(C)Cc1ccc(Cl)c(Cl)c1 = Vaccinia stage: -27; Vaccinia stage Venus: -27

Compounds listed so far that have a tert-butyl group:
SMILES | Vaccinia stage | Vaccinia stage Venus
COc1ccc(COC[C@@]23Oc4ccccc4[C@@H](NC(=S)N2C)[C@H]3CO[Si](C)(C)C(C)(C)C)cc1 | -35 | -40
CN(C)C(=O)c1cc2c(c(-c3cccc(C4=CCCC4)c3)n1)[C@@H](CCO)N([S@](=O)C(C)(C)C)C2 | 6 | 32

The list goes on.
SMILES | Vaccinia stage | Vaccinia stage Venus
C[C@@H]1CN([C@H](C)CO)S(=O)(=O)c2ccc(C#CC3CCCC3)cc2O[C@@H]1CN(C)Cc1cccnc1 | u | x
C[C@H](CO)N1C[C@H](C)[C@H](CN(C)C(=O)Nc2ccccc2)Oc2ccc(NC(=O)CCN3CCOCC3)cc2C1=O | 17 | 8
C[C@@H]1CN([C@@H](C)CO)C(=O)c2cc(NC(=O)Nc3cccc4ccccc34)ccc2O[C@@H](C)CCCCO[C@H]1CN(C)C(=O)Nc1cccc2ccccc12 | 37 | 16
CN(C)CC(=O)N1CCCCN2[C@H](CO)[C@H](c3ccc(/C=C/c4ccccc4)cc3)[C@@H]2C1 | u | x
O=C(Nc1nccs1)[C@H]1[C@H](CO)[C@H]2Cn3c(cccc3=O)[C@H]2N1C(=O)C1CCCCC1 | 11 | 20
C/C=C/c1ccc2c(c1)O[C@@H](CN(C)Cc1cncnc1)[C@@H](C)CN([C@@H](C)CO)S2(=O)=O | 0 | -2
C[C@@H]1CN([C@@H](C)CO)C(=O)Cc2cc(NC(=O)CCCCCC(=O)Nc3ccccc3N)ccc2O[C@@H]1CN(C)S(=O)(=O)c1cn(C)cn1 | 9 | 7
O=C(C1CCCC1)N1CC[C@@H]2[C@H]1c1cc(C3=CCCCC3)ccc1N[C@@H]2CO | -20 | -17
C[C@H](CO)N1C[C@H](C)[C@@H](CN(C)C(=O)c2ccccc2)Oc2ncc(C#C[C@@H](C)O)cc2C1=O | 27 | 18
C/C=C/c1ccc2c(c1)O[C@H](CN(C)C(=O)Nc1ccc(OC)cc1)[C@H](C)CN([C@@H](C)CO)S2(=O)=O | -17 | -15
CC(C)NC(=O)N(C)C[C@@H]1Oc2ccc(N(C)C)cc2C(=O)N([C@H](C)CO)C[C@@H]1C | 5 | 2
CCS(=O)(=O)Nc1ccc2c(c1)C(=O)N(C)C[C@H](OC)[C@@H](C)CN(C(=O)C1CCC1)[C@H](C)CO2 | 7 | 2
O=C(O)[C@H]1[C@H](CO)[C@H]2Cn3c(ccc(-c4ccncc4)c3=O)[C@@H]1N2C(=O)C1CCC1 | 18 | 13
C[C@@H]1CN([C@@H](C)CO)C(=O)Cc2cc(NS(=O)(=O)c3ccc(F)cc3)ccc2O[C@H]1CN(C)Cc1ccc(Oc2ccccc2)cc1 | u | x
C/C=C/c1cnc2c(c1)C(=O)N([C@@H](C)CO)C[C@H](C)[C@@H](CN(C)C(=O)C1CCOCC1)O2 | 12 | 8
C[C@H](CO)N1C[C@H](C)[C@@H](CN(C)C)OCCCC[C@H](C)Oc2ccc(NC(=O)NC3CCCCC3)cc2C1=O | 14 | 13

A portion of the library; rates above refer to the full screens.
